# TRPML1 inh – human mucolipin-1 channel inhibition; Q9GZU1; TRPML1-inducible cells, Ca2+ dye fluorescence, FDSS; hits give low values; inhibition of EC80 agonist-evoked calcium signal; activity change, negative = inhibition, % (concentration not given with the values); hit rate 0.02% among 390,000; in the data active means activity change below about -50%; inconclusive means about -30% to -50%; inactive means above about -30%;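 also: stimulus is agonist 54-4 at its EC80 concentration; % is scaled to controls: 0 for no effect and ±100 for the full control effect; compound concentration not given in the record; the text of the record puts the active cut at -80%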
# Target sequence (Q9GZU1 whole entry, looked up): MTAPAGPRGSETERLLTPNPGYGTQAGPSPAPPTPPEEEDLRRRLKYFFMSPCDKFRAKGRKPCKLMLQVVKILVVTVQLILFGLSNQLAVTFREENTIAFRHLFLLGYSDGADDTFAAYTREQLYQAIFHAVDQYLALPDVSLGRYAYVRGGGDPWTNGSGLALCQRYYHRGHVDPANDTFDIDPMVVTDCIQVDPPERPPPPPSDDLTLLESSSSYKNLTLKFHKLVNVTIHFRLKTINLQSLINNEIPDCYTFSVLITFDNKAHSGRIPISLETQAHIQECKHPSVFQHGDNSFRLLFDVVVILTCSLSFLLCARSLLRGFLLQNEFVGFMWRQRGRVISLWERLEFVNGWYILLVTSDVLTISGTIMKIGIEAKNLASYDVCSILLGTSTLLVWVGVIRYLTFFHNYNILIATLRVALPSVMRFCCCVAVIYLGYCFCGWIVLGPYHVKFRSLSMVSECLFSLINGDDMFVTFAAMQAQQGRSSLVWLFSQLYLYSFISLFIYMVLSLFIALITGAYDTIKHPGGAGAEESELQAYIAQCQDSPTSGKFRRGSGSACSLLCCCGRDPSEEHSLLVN
#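 Calcium fluorescence in TRPML1-DL cells induced overnight with Tet: a 110 s read after compound pin addition, then a 110 s antagonist read after challenge with 54-4 at 4 uM final (EC80).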
# TRPML1 agonist – agonists of human TRPML1 channel. Q9GZU1. TRPML1-expressing cells, Ca2+ dye fluorescence, FDSS; host cell line not named in the record; reference of the full effect not given here. activation, % (test concentration not listed). hit rate 0.12% among 410,000; in the data active = activation above about 50%; inconclusive = about 30% to 50%; inactive = below about 30%; also: 0% is about no effect; the text of the record puts the active cut at 80%
#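 Tet-induced TRPML1-DL cells, 1,500 per well, cultured overnight, were loaded with a no-wash Ca2+ dye for 45–90 min. Calcium fluorescence was recorded on the FDSS for 110 s after compound addition, before the EC80 agonist (4 uM 54-4) was added.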
# * marks the source's active call; other numbers are inactive results. Only part of the results is shown; count on the stated rates, not on these rows.
# Results follow in this order: TRPML1 inh	TRPML1 agonist
1	Cc1ccc(CCNC(=O)c2cn(C)c3ccc(S(=O)(=O)N4CCC(C)CC4)cc3c2=O)cc1
  8	-0.4
2	Cc1ccc(C2N3CC4(C)CN2CC(c2ccccc2)(C3)C4=O)cc1 (stereo not given)
  0	0.8
3	CC1CCCCN1C(=O)CSc1n[nH]c(-c2ccccc2Cl)n1 (stereo not given)
  -17	-0.3
4	Cn1cc(S(=O)(=O)N2CCCCCC2)cc1C(=O)NCc1ccc(F)cc1
  6	-0.4
5	COCCCn1c(=O)c2sccc2n2c(CCCC(=O)Nc3ccc(F)c(F)c3)nnc12
  -12	2.6
6	CCn1nnc2cc(C(=O)Nc3ccc(C)cc3Br)ccc21
  21	2.6
7	CCOC(=O)c1cccc(NC(=O)c2cc3c(-c4cccc(OC)c4)nn(C)c3s2)c1
  -10	-0.9
8	CCN(CC)S(=O)(=O)c1cc(-c2nnc(Nc3ccc(OC)c(C(N)=O)c3)c3ccccc23)ccc1C
  -6	1.3
9	COc1cccc(-c2nc(SCC(=O)NCc3ccccc3)c3c(=O)n(C)c(=O)n(C)c3n2)c1
  -5	1.6
10	CCc1ccc(C(=O)c2cn(CC(=O)Nc3ccc(F)cc3)c3ccc(OC)cc3c2=O)cc1
  42	0.8

# From entry 1 up to 2, as listed above:
# Results follow in this order: TRPML1 inh	TRPML1 agonist
1	Cc1ccc(CCNC(=O)c2cn(C)c3ccc(S(=O)(=O)N4CCC(C)CC4)cc3c2=O)cc1
  8	-0.4
2	Cc1ccc(C2N3CC4(C)CN2CC(c2ccccc2)(C3)C4=O)cc1 (stereo not given)
  0	0.8

# New compounds follow:
# Results follow in this order: TRPML1 inh	TRPML1 agonist
11	COc1ccc(-c2noc(-c3ccc(NCc4cccnc4)c([N+](=O)[O-])c3)n2)cc1OC
  0	-0.7
12	Cc1cccn2c(=O)c3cc(C(=O)NCc4ccccc4)c(=N)n(CCOCCO)c3nc12
  1	-1.0
13	CC(=O)Nc1c(C)nn(-c2ccccc2)c1N1CCC(C(=O)NCc2ccccc2Cl)CC1
  -4	-0.5
14	CCOC(=O)c1c(C)[nH]c(C)c1S(=O)(=O)N1CCN(c2cccc(C(F)(F)F)c2)CC1
  5	4.4
15	COc1cccc(C(=O)Nc2ccc3nc(SCC(=O)N4CCOCC4)sc3c2)c1
  7	2.4
16	COc1cccc(CNC(=O)Cn2ncn3nc(-c4cccs4)cc3c2=O)c1OC
  -22	-0.8
17	CCOC(=O)c1sc(N2C(=O)c3oc4ccccc4c(=O)c3C2c2ccc(C(C)(C)C)cc2)nc1C (stereo not given)
  -16	0.3
18	CCOc1ccc(NC(=O)CSc2nnc(CC)c(CC)n2)cc1
  4	-0.2
19	CC(C)OCCCN1C(=O)c2[nH]nc(-c3ccccc3O)c2C1c1ccccc1F (stereo not given)
  -11	2.2
20	COc1cc2c(cc1NC(=O)COc1cc(C)cc(C)c1)oc1ccccc12
  2	-0.4
21	Cc1ccc(NC(=O)c2sc(-n3nc(C)c(Cc4ccc5c(c4)OCO5)c3C)nc2C)cc1Cl
  2	0.5
22	Brc1ccc(-c2nc3ccccn3c2Nc2ccc3c(c2)OCCO3)o1
  36	2.7
23	Cc1ccc(Cl)cc1N1CCN(C(=O)C2CCCN(S(=O)(=O)c3ccc(Br)s3)C2)CC1 (stereo not given)
  -2	3.2
24	CCNc1c(NC(=O)c2cc(OCC)c(OCC)c(OCC)c2)c(=O)oc2ccccc12
  7	-0.2
25	CCc1nc(-c2cc(S(=O)(=O)N3CCN(c4ccc(F)cc4)CC3)ccc2OC)no1
  2	1.4
26	COc1ccccc1CNC(=O)CCc1c(C)c2cc3c(C)c(C)oc3cc2oc1=O
  10	0.3
27	Cc1ccc(CNC(=O)Cn2cc(C(=O)c3ccc(F)cc3)c(=O)c3ccc(C)nc32)cc1
  -12	0.0
28	CCOc1ccc(C(=O)Cn2c(=O)n3nc(CCn4nc(C)cc4C)nc3c3cc(OC)c(OC)cc32)cc1
  -16	3.2
29	CCOC(=O)c1ccccc1NC(=O)NCc1c(-n2cccc2)sc2c1CCCC2
  5	-0.8
30	CCOC(=O)c1ccc(NS(=O)(=O)c2ccc(Br)s2)cc1
  3	-1.2
31	CCN1CCN(c2csc3ccc(F)cc3c2=O)CC1
  -8	-0.5
32	O=C(CSc1oc(-c2cccs2)nc1S(=O)(=O)c1ccccc1)Nc1ccc(F)cc1
  13	-0.6
33	COc1cc(-c2cc(OC)c3c(C)oc(C)c3c(=O)c2)ccc1OC(=O)c1ccccc1Cl
  -7	1.3
34	COc1ccc(NC(=O)/C(C#N)=C/c2cc(C)n(-c3ccc(F)cc3)c2C)cc1
  5	-0.1
35	CC(C)(C)n1ncc2c(=O)n(Cc3ccc([S+](=O)([O-])N4CCOCC4)cc3)cnc21
  -3	0.4
36	CN(C)c1ccc(CNC(=O)c2ccc3nc(CCc4ccccc4)oc3c2)cc1
  12	1.4
37	O=C(Nc1ccc(C(=O)N2CCN(c3ccc(Cl)cc3)CC2)cc1)c1nsc2ccccc12
  1	0.7
38	Cc1ccc(Cl)cc1N1CCN(C(=O)C2CCCN(Cc3nc(-c4cccc(Cl)c4)oc3C)C2)CC1 (stereo not given)
  34	0.5
39	Cc1ccc(CCNc2nc3c(S(=O)(=O)c4ccc(C)cc4)nnn3c3ccsc23)cc1
  -9	-0.4
40	CCOC(=O)c1cc2c(=O)n3ccccc3nc2n(CCCOC)c1=NC(=O)C(C)(C)Oc1ccc(Cl)cc1
  -5	-0.4
41	COc1cccc(C(=O)Nc2ccc(-n3nncc3-c3ccccc3)cc2)c1
  1	3.5
42	O=C(COc1ccccc1)Nc1sc2c(c1C(=O)Nc1ccccc1)CCCCC2
  0	-0.2
43	Cn1nnnc1SCCNCc1ccc(OCc2ccccc2)cc1
  11	1.1
44	C=CCN(C(C(=O)OC)C(C)C)S(=O)(=O)CCl (stereo not given)
  -11	0.5
45	CSc1ncc(Cl)c(C(=O)Nc2nc3ccc(F)cc3s2)n1
  -11	-0.2
46	Cc1ccc(CNC(=O)c2ccc(-c3nc(CS(=O)c4ccccc4)c(C)o3)cc2)cc1 (stereo not given)
  18	0.0
47	Cc1ccc(C)c(NC(=O)CSc2nc3c([nH]c4ccccc43)c(=O)n2-c2ccc(F)cc2)c1
  12	0.0
48	CCc1ccc(-n2c(=O)c3c(C)c(C(=O)N(C)C)sc3n(Cc3ccccc3C#N)c2=O)cc1
  -2	0.9
49	CCC1CN(C(=O)Nc2ccccc2C(F)(F)F)c2ccccc2O1 (stereo not given)
  3	3.7
50	COc1cccc(CNC(=O)C(NS(=O)(=O)c2ccc3nc(C)sc3c2)C(C)C)c1 (stereo not given)
  45	-1.1

# A different layout for 21 compounds above.
no. | compound | TRPML1 inh | TRPML1 agonist
24 | CCNc1c(NC(=O)c2cc(OCC)c(OCC)c(OCC)c2)c(=O)oc2ccccc12 | 7 | -0.2
25 | CCc1nc(-c2cc(S(=O)(=O)N3CCN(c4ccc(F)cc4)CC3)ccc2OC)no1 | 2 | 1.4
26 | COc1ccccc1CNC(=O)CCc1c(C)c2cc3c(C)c(C)oc3cc2oc1=O | 10 | 0.3
27 | Cc1ccc(CNC(=O)Cn2cc(C(=O)c3ccc(F)cc3)c(=O)c3ccc(C)nc32)cc1 | -12 | 0.0
28 | CCOc1ccc(C(=O)Cn2c(=O)n3nc(CCn4nc(C)cc4C)nc3c3cc(OC)c(OC)cc32)cc1 | -16 | 3.2
29 | CCOC(=O)c1ccccc1NC(=O)NCc1c(-n2cccc2)sc2c1CCCC2 | 5 | -0.8
30 | CCOC(=O)c1ccc(NS(=O)(=O)c2ccc(Br)s2)cc1 | 3 | -1.2
31 | CCN1CCN(c2csc3ccc(F)cc3c2=O)CC1 | -8 | -0.5
32 | O=C(CSc1oc(-c2cccs2)nc1S(=O)(=O)c1ccccc1)Nc1ccc(F)cc1 | 13 | -0.6
33 | COc1cc(-c2cc(OC)c3c(C)oc(C)c3c(=O)c2)ccc1OC(=O)c1ccccc1Cl | -7 | 1.3
34 | COc1ccc(NC(=O)/C(C#N)=C/c2cc(C)n(-c3ccc(F)cc3)c2C)cc1 | 5 | -0.1
35 | CC(C)(C)n1ncc2c(=O)n(Cc3ccc([S+](=O)([O-])N4CCOCC4)cc3)cnc21 | -3 | 0.4
36 | CN(C)c1ccc(CNC(=O)c2ccc3nc(CCc4ccccc4)oc3c2)cc1 | 12 | 1.4
37 | O=C(Nc1ccc(C(=O)N2CCN(c3ccc(Cl)cc3)CC2)cc1)c1nsc2ccccc12 | 1 | 0.7
38 | Cc1ccc(Cl)cc1N1CCN(C(=O)C2CCCN(Cc3nc(-c4cccc(Cl)c4)oc3C)C2)CC1 (stereo not given) | 34 | 0.5
39 | Cc1ccc(CCNc2nc3c(S(=O)(=O)c4ccc(C)cc4)nnn3c3ccsc23)cc1 | -9 | -0.4
40 | CCOC(=O)c1cc2c(=O)n3ccccc3nc2n(CCCOC)c1=NC(=O)C(C)(C)Oc1ccc(Cl)cc1 | -5 | -0.4
41 | COc1cccc(C(=O)Nc2ccc(-n3nncc3-c3ccccc3)cc2)c1 | 1 | 3.5
42 | O=C(COc1ccccc1)Nc1sc2c(c1C(=O)Nc1ccccc1)CCCCC2 | 0 | -0.2
43 | Cn1nnnc1SCCNCc1ccc(OCc2ccccc2)cc1 | 11 | 1.1
44 | C=CCN(C(C(=O)OC)C(C)C)S(=O)(=O)CCl (stereo not given) | -11 | 0.5

# (next part)
# Results follow in this order: TRPML1 inh	TRPML1 agonist
51	CC(=O)c1ccc(NC(=O)CCc2nc(-c3ccc(C)cc3)no2)cc1
  -20	-0.3
52	COc1ccc(-n2nc(C(=O)NCc3ccc(F)cc3)c3c4ccccc4n(C)c3c2=O)cc1
  6	1.4
53	COc1cc(C(=O)N(Cc2ccc(N(C)C)cc2)CC2CCCO2)cc(OC)c1OC (stereo not given)
  14	-0.2
54	COc1ccc(CN(C(=O)c2ccccc2F)C2CCS(=O)(=O)C2)cc1 (stereo not given)
  -3	-0.4
55	Cc1cc(C)cc(-n2c(SCC(=O)N3CCCCCC3)nc3c([nH]c4ccccc43)c2=O)c1
  22	2.7
56	Nc1c(-c2nc(-c3ccccc3)no2)nnn1CC(=O)Nc1ccccc1
  13	-0.3
57	Cc1ccc(-n2c(SCC(=O)Nc3ccc4c(c3)OCO4)nc3c([nH]c4ccccc43)c2=O)cc1
  8	1.4
58	COc1cc(Cl)c(C)cc1NC(=O)CCn1cnc2onc(-c3ccc(F)cc3)c2c1=O
  -23	0.6
59	Cc1ccc(Cn2c(C(=O)Nc3cccc(Cl)c3)cc3sccc32)cc1
  16	0.2
60	CCOC(=O)c1noc2nc(C)n(CC(=O)Nc3ccc(OC)c(Cl)c3)c(=O)c12
  -8	1.5
61	CSc1ccc(CCNC(=O)c2cnc3c(C)cccn3c2=O)cc1
  11	1.6
62	Cc1cc(C)cc(Nc2cc(C(=O)NC3CCC(C)CC3)c3ccccc3n2)c1 (stereo not given)
  4	0.6
63	Cc1ccc(C)c(Cn2c(=O)c3c(nc4n3CCN4c3ccc(F)cc3)n(C)c2=O)c1
  -8	1.4
64	CSc1ncc(Cl)c(C(=O)Nc2c(C(=O)Nc3cccc(C)c3)oc3ccccc23)n1
  -11	-0.6
65	CCCn1cc(S(=O)(=O)c2cc(C)ccc2C)c(=O)c2cc(F)c(N3CCOCC3)cc21
  44	0.4
66	COc1ccc(NC(=O)C(NC(=O)Cc2cccs2)c2ccc(OC)cc2)cc1 (stereo not given)
  24	-0.2
67	CCS(=O)(=O)N1CC(=O)N(c2ccc(C)c(C)c2)C(C)(C(=O)NC2CCCCCC2)C1 (stereo not given)
  0	0.4
68	CCc1ccccc1N(C)C(=O)c1cc2c(=O)oc3ccccc3c2s1
  -8	-1.5
69	Cc1cccc(C)c1NC(=O)c1nc(S(C)(=O)=O)ncc1N(Cc1ccc(C(C)(C)C)cc1)Cc1ccco1
  19	2.3
70	COc1cccc(CNC(=O)Cn2cc3c(n2)-c2c(oc(C(=O)N4CCOCC4)c2C)CC3)c1
  13	-0.5
71	Cc1cc(C(=O)N2CCN(c3cccc(C)c3C)CC2)c2c(C)nn(-c3ccccc3)c2n1
  8	-0.9
72	Cc1cc(C)c(NC(=O)CN2C(=O)C3(SCC(=O)N3c3ccc(F)cc3)c3ccccc32)c(C)c1 (stereo not given)
  -1	2.9
73	CCOC(=O)c1ccc(N2C(=O)c3[nH]nc(-c4ccc(OC)cc4)c3C2c2ccccc2Cl)cc1 (stereo not given)
  11	0.1
74	Cc1cccc(C)c1Nc1c(-c2ccsc2)nc2ccccn12
  4	2.0
75	CNC(=O)c1c(NC(=O)Cc2coc3ccc(OC)cc23)sc2c1CCCC2
  -4	2.6
76	COc1cc(OC)cc(-c2nc3n(n2)C(c2ccccc2F)C(C(=O)Nc2cccnc2)=C(C)N3)c1 (stereo not given)
  2	-0.3
77	COc1ccc(-n2c(SCc3ccccc3)nc3c([nH]c4ccccc43)c2=O)cc1
  4	0.5
78	COc1cc(-c2noc(-c3ccc(NCc4ccco4)c([N+](=O)[O-])c3)n2)cc(OC)c1OC
  5	-0.2
79	Cc1ccccc1-c1nc2scc(CCNC(=O)c3ccco3)n2n1
  -14	2.0
80	O=C(Cn1ncc2c3ccccc3n(Cc3ccccc3)c2c1=O)NCCc1ccc(Cl)cc1
  23	2.7
81	Cc1ccc(O)c(NC(=O)CCSc2nc(-c3ccco3)cc(C(F)(F)F)n2)c1
  -20	3.4
82	Cc1ccc(-n2nc(C)c(C(=O)NCCCN3CCN(c4ccccc4F)CC3)c2-n2cccc2)cc1
  19	1.9
